PINK1 expr mod: modulators of PINK1 expression. PINK1 immunofluorescence, high-content cytometry, 24 h. Potency, µM (top dose mostly 76.6 µM), without a hit: at the highest dose activation (PINK1 increase), usual class: activators. hit rate 0.2% among 410,000; active = well fitted activation curve with a large enough effect; inconclusive = small, poorly fitted or top-dose-only effect; inactive = flat fitted curve, though single readings scatter; cell line not stated here;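 note: % of control where 0% means no effect; nearly all actives have a fitted effect of over 65% in size; a mitochondrial uncoupler was the plate control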
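Compound titrations (5 concentrations, 24 h) on a stable cell line; DMSO and CCCP controls. Endpoint: fixed-cell PINK1 immunofluorescence with mitochondrial, cell and nuclear markers, scanned by microplate cytometer.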
* = called active by the depositor; u = inconclusive. Potency is the fitted concentration of half-maximal effect.

SMILES	PINK1 expr mod
COc1ccc(NC(=O)CSc2nc(-c3ccc(F)cc3)[nH]c2-c2ccc(C)cc2)cc1OC	0.9%
O=C(Nc1ccc2nc(SCC(=O)N3CCOCC3)sc2c1)c1ccc(F)cc1	1.0%
O=C(c1ccc2c(c1)N(Cc1ccc(F)cc1)C(=O)c1ccccc1S2(=O)=O)N1CCC(Cc2ccccc2)CC1	1.7%
CCC(O)c1nc2ccccc2n1Cc1cccc(Cl)c1 (stereo unspecified)	1.0%
CCOC(=O)C1CCN(C(=O)c2cc3sc(C)cc3n2C)CC1	-1.0%
Cc1ccc2scc(N3CCCCC3C)c(=O)c2c1 (stereo unspecified)	0.2%
Cc1ccc(C)c(Cn2c3ccccc3c3cnn(CC(=O)NCCC4=CCCCC4)c(=O)c32)c1	1.1%
COc1ccc(CCNC(=O)CCn2c(=O)c3ccccc3n(Cc3ccccc3C)c2=O)cc1OC	1.8%
O=C(Nc1c2c(nn1-c1ccc(Cl)cc1)CS(=O)(=O)C2)c1ccc(Br)cc1	32µM*
Cc1ccc(-n2c(=O)c3cccnc3n2CC(=O)Nc2cc(Cl)ccc2C)cc1	0.9%
CCN(CC)S(=O)(=O)c1ccc2c(c1)c(=O)c(C(=O)N1CCN(c3ccc(OC)cc3)CC1)cn2C	0.9%
COc1cc(OC)c(NC(=O)CCS(=O)(=O)c2ccc3c(c2)oc(=O)n3C)cc1Cl	1.2%
CCC1(C2CCN(C(=O)c3cccc(F)c3F)CC2)NC(=O)N(CCc2scnc2C)C1=O (stereo unspecified)	0.2%
CCOc1cc(-c2ccc(OC(=O)c3ccc(OC)cc3)c(OC)c2)cc(=O)c2c(C)oc(C)c12	0.2%
COc1ccc(-c2oc3ncn4nc(COc5ccc(C)cc5)nc4c3c2-c2ccc(OC)cc2)cc1	3.1%
CC(=O)c1ccc(NC(=O)/C=C/c2ccc(C)o2)cc1	1.3%
CCCNC(=O)C1CCC(Cn2c(=O)c3sccc3n(Cc3ccccc3C)c2=O)CC1 (stereo unspecified)	0.3%
Cn1c(=O)oc2cc(S(=O)(=O)N3CCCC(C(=O)N4CCN(c5cccc(Cl)c5)CC4)C3)ccc21 (stereo unspecified)	5.1%
CCCN1C(=O)C(O)(CC(=O)c2ccc(CC)cc2)c2cc(Br)ccc21 (stereo unspecified)	11%
CCc1cccc(NC(=O)Cn2c(-c3ccc(F)cc3)cc(C(C)=O)c2C)c1	1.5%

Some values from the list:
For PINK1 expr mod, CCC1(C2CCN(C(=O)c3cccc(F)c3F)CC2)NC(=O)N(CCc2scnc2C)C1=O (stereo unspecified) is listed with 0.2%
For PINK1 expr mod, CCOc1cc(-c2ccc(OC(=O)c3ccc(OC)cc3)c(OC)c2)cc(=O)c2c(C)oc(C)c12 is listed with 0.2%
For PINK1 expr mod, CC(=O)c1ccc(NC(=O)/C=C/c2ccc(C)o2)cc1 is listed with 1.3%
For PINK1 expr mod, CCCNC(=O)C1CCC(Cn2c(=O)c3sccc3n(Cc3ccccc3C)c2=O)CC1 (stereo unspecified) is listed with 0.3%
For PINK1 expr mod, COc1ccc(-c2oc3ncn4nc(COc5ccc(C)cc5)nc4c3c2-c2ccc(OC)cc2)cc1 is listed with 3.1%
For PINK1 expr mod, Cn1c(=O)oc2cc(S(=O)(=O)N3CCCC(C(=O)N4CCN(c5cccc(Cl)c5)CC4)C3)ccc21 (stereo unspecified) is listed with 5.1%
For PINK1 expr mod, CCN(CC)S(=O)(=O)c1ccc2c(c1)c(=O)c(C(=O)N1CCN(c3ccc(OC)cc3)CC1)cn2C is listed with 0.9%

Following part
SMILES	PINK1 expr mod
O=C(NCc1cccs1)c1ccc(CSc2nc3ccncc3n2Cc2ccccc2)cc1	0.6%
CC(=O)Nc1ccc(S(=O)(=O)N2CCC(c3ccncc3)CC2)cc1	0.9%
CCOc1ccc(CCNC(=O)c2cnc3sc(N4CCC(C)CC4)nn3c2=O)cc1	2.7%
Cc1cc(N2CCN(c3cccc(C)c3C)CC2)n2nc(C)c(-c3ccc(Cl)cc3)c2n1	0.4%
CCOC(=O)c1c(C)c(-c2ccccc2)n(CC(=O)NCc2ccccc2)c1C	1.6%
COc1ccc(NC(=O)C(C)n2nc(-c3cc(C)ccc3C)c3c(c2=O)CCCC3)cc1 (stereo unspecified)	0.3%
CCOc1ccccc1NS(=O)(=O)c1cc2[nH]c(=O)c(=O)[nH]c2cc1C	1.3%
Cc1ccccc1OCC(=O)Nc1ccc(C(=O)OCc2cc(=O)n3c(C)csc3n2)cc1	2.7%
CCOC(=O)Cn1c(=O)n(C2CCCCC2)c2nc(-c3ccc(OC)cc3)nc(C(N)=O)c21	0.8%
CCOCCCn1c(SCC(=O)Nc2ccc(C)cc2)nc2ccccc2c1=O	1.8%
CCN(CC)CCCNC(=O)c1cnc(SC)nc1-c1ccccc1	1.6%
CCN1C(=O)c2ccccc2S(=O)c2ccc(C(=O)N3CCN(c4cccc(Cl)c4)CC3)cc21 (stereo unspecified)	1.3%
CCC(C(=O)Nc1ccccc1)n1nc(-c2cc(C)ccc2C)ccc1=O (stereo unspecified)	-1.2%
O=S(=O)(c1ccccc1)c1nc(-c2ccco2)oc1SCc1ccc(F)cc1	2.1%
CCN(CCCNC(=O)c1c(C)oc2ncn(CC(C)C)c(=O)c12)Cc1ccccc1	-1.2%
COc1ccc(CCN2CCC(CNC(=O)c3cnn(-c4cccc(Cl)c4)c3C3CCN(C(=O)OC(C)(C)C)CC3)CC2)cc1	-0.7%
Cc1ccc(-c2nn(-c3ccccc3)c3c2cnc2ccccc23)cc1C	0.4%
CCc1ccccc1NC(=O)C1CCCN(c2nnc(-n3c(C)ccc3C)s2)C1 (stereo unspecified)	0.4%
COc1ccccc1C(=O)Nc1nc(-c2ccccc2)ns1	-3.7%
Cc1ccc(C(=O)N(Cc2ccco2)c2ccccn2)cc1	0.7%
COc1ccc(NC(=O)CSC2=Nc3ccccc3N=C(c3ccc(F)cc3)C2)cc1OC	5.1%
NCCCN(Cc1ccccc1)c1ccc(Br)cn1	1.3%
COc1ccc(NC(=O)c2cccc(N3CCCS3(=O)=O)c2)c(OC)c1	1.6%
Cc1ccc(NC(=O)CN(C)S(=O)(=O)c2cccc3nsnc23)c(C)c1	0.7%
COc1ccc(OC)c(NC(=O)Cn2c(=O)cc(-c3ccccc3)c3c(C)nn(C)c32)c1	4.8%
COC(=O)c1sccc1S(=O)(=O)N(CC(=O)NCc1ccc(C)cc1)c1ccc(C)cc1	4.2%
COc1ccc(OCC(=O)Nc2ccc(Cl)c(-c3nc4ncccc4o3)c2)cc1	0.1%
Cc1ccccc1CNC(=O)CCCn1c(=O)c2cccn2c2cccnc21	0.1%
Cc1ccc(CCNC(=O)CN2C(=O)COc3ccc(S(=O)(=O)N4CCCCCC4)cc32)cc1	0.6%
CCn1c(SCc2ccc(F)cc2Cl)nnc1-c1nonc1NC(C)=O	-1.1%
COc1ccccc1/C=C1\C=Cc2ccccc21	1.0%
O=C(Cn1c(=O)n(-c2ccc(Cl)cc2)c(=O)c2sc3ccccc3c21)NC1CCCCC1	1.4%
CCOc1ccc(NC(=O)c2ccc3[nH]c(C)c(C)c3c2)cc1	2.0%
COC(=O)c1c(-c2ccc(Cl)cc2)noc1N1CCN(c2cccc(C)c2C)CC1	0.0%
Cc1cc(C)cc(OCCSc2nc(-c3cccs3)nc3cc(=O)[nH]n23)c1	1.3%
COc1ccc(Cn2nnc3c(=O)[nH]c(C4CCCN(C(=O)c5ccccc5Cl)C4)nc32)cc1OC (stereo unspecified)	2.3%
CCc1nn2c(=O)cc(COc3ccc(/C=C(\C#N)C(=O)Nc4ccc(C)cc4)cc3)nc2s1	16%
Cc1ccc(-n2ncc3c(N4CCC(Cc5ccccc5)CC4)ncnc32)cc1	0.2%
O=S(=O)(Nc1ccc(F)cc1F)c1ccc(Br)s1	1.1%
COc1cc(=O)n2c(c1C(=O)N(C)Cc1nccs1)CCN(Cc1ccc(Cl)cc1)CC2	1.5%
COc1cccc(CN2CCCN(Cc3ccc(F)cc3)S2(=O)=O)c1	0.7%
CCCc1ccc(OC(=O)c2sc3ncn(Cc4cccc(F)c4)c(=O)c3c2C)cc1	0.3%
CCCc1cc(=O)oc2cc(C)c3c(C(C)(C)C)coc3c12	1.1%
CC(=O)Nc1ccccc1-c1nc(CNC(=O)c2ccc(-c3ccccc3F)cc2)c(C)o1	2.9%
Cc1cccc(-c2nc3cc(NC(=O)COc4ccccc4F)ccc3o2)c1	1.3%
COc1ccccc1C(=O)OCc1cc(=O)n2nc(C3CCCCC3)sc2n1	-0.1%
COc1ccc(NC(=O)CSc2ccc3nc(-c4ccccc4)cn3n2)c(OC)c1	-1.0%
C[n+]1ccc(/C=C/c2ccc([N+](C)(C)C)cc2)c2ccccc21	u
CC(C)Oc1ccc(CNC(=O)c2cc3cccc4c3n2CC(C)S4)cc1 (stereo unspecified)	3.5%
CCOC(=O)Cc1ccc(NC(=O)NC(C)c2c(-n3cccc3)sc(C)c2C)cc1 (stereo unspecified)	-0.1%
Later entries
SMILES	PINK1 expr mod
CC(=O)Nc1ccc(-c2nnc3n(Cc4ccc(C)cc4)c(=O)c4ccccc4n23)cc1	-0.3%
CCOC(=O)CNC(=O)c1cc2c(=O)n3cccc(C)c3nc2s1	6.4%
CCC(=O)Nc1ccc(CC)cc1-c1nc2ccccc2n(CC(=O)c2ccc(OC)cc2)c1=O	1.1%
COC(=O)[C@@H]1CCCN1Cc1ccc2c(c1)CN(Cc1ccccc1F)CCO2	-0.3%
Cc1ccc(CNC(=O)CCc2cn(Cc3ccc(C)cc3)c3ccccc23)cc1	-0.2%
COc1cccc(C(=O)N2c3nc(-c4ccco4)nn3C3(CCCCC3)[C@@H]3CCCC[C@@H]32)c1	1.8%
COc1cccc(CNC(=O)c2ccc3c(c2)N(C)C(=O)C2CCCCN32)c1 (stereo unspecified)	1.4%
CC(=O)c1cccc(-n2c(=O)c3c4c(sc3n(Cc3ccccc3Cl)c2=O)CN(C(C)=O)CC4)c1	2.2%
CCCN(C(=O)COc1cc(=O)n(CC)c2ccccc12)c1ccc(C(C)C)cc1	25%
CCOc1ccc(-c2cc3c(=O)n(CC(=O)NCc4ccc(F)cc4)ccn3n2)cc1	3.5%
COc1cc(=O)n2c(c1C(=O)NCc1ccco1)CCN(Cc1cc3ccccc3[nH]1)CC2	1.4%
Cc1ccc(C(C)CCN2CCOc3ccc(CN4CCOCC4)cc3C2)o1 (stereo unspecified)	0.6%
CCc1nnc(NC(=O)CSc2nc3c([nH]c4ccccc43)c(=O)n2-c2ccc(F)cc2)s1	0.3%
COc1cccc(-c2n[nH]c3c2C(c2cccc(O)c2)N(C)C3=O)c1 (stereo unspecified)	1.4%
Nc1c(C(=O)NCc2ccc(Cl)cc2)sc2nc(-c3ccc(F)cc3)ccc12	5.0%
CCc1nn(CC(=O)N(C)Cc2ccccc2)c(=O)c2cc3sccc3n12	-0.1%
CC(C)(C)C1CCc2c(sc3nc(-c4cc5cc(Cl)ccc5oc4=O)[nH]c(=O)c23)C1 (stereo unspecified)	0.0%
CC(=O)c1ccc(NC(=O)c2cccc(NC(=O)N3CCSc4ncccc43)c2)cc1	-1.1%
Cc1ccccc1C1(CC(=O)N2CCCC(C)C2)CC(=O)N(Cc2cccnc2)C1=O (stereo unspecified)	-0.3%
Cc1oc2ccc(O)c(CN3CCCC3)c2c1C(=O)Nc1cccc(Cl)c1C	1.6%

Entries from the list above containing a tert-butyl group, in the order listed:
SMILES	PINK1 expr mod
COc1ccc(CCN2CCC(CNC(=O)c3cnn(-c4cccc(Cl)c4)c3C3CCN(C(=O)OC(C)(C)C)CC3)CC2)cc1	-0.7%
CCCc1cc(=O)oc2cc(C)c3c(C(C)(C)C)coc3c12	1.1%
CC(C)(C)C1CCc2c(sc3nc(-c4cc5cc(Cl)ccc5oc4=O)[nH]c(=O)c23)C1 (stereo unspecified)	0.0%

(list continues)
SMILES	PINK1 expr mod
Cc1ncc2c(c1CNS(=O)(=O)N(C)C)CCN(C(=O)/C=C/c1ccccc1)C2	0.2%
Cc1ccc(CNC(=O)c2cc(C3CC3)nc3c2c(C)nn3-c2cccc(Cl)c2C)cc1	-1.0%
Cc1cc2c(cc1NS(=O)(=O)c1ccc(F)cc1)n(C)c(=O)c(=O)n2C	0.0%
Cc1ccc(-n2cnc3cc(C(=O)NCc4ccc(F)cc4)ccc32)c(C)c1	0.2%
Cc1ccc(NC(=O)COc2ccc3oc4c(c3c2)CCCC4)cc1C	-5.2%
COc1ccc(OC)c(Nc2sc(C(=O)c3ccccc3)c(N)c2S(=O)(=O)c2ccccc2)c1	2.9%
O=C(Nc1ccccc1)N(Cc1c[nH]c2ccccc12)C1CCCCCC1	3.0%
CCc1ccc(NC(=O)CSc2nc(-c3ccccc3)no2)cc1	2.4%
CCC1CN(C(=O)N2CCC(C(=O)N3CCN(c4ccccc4)CC3)CC2)c2ccccc2O1 (stereo unspecified)	0.1%
CCCc1nn2c(=O)cc(COC(=O)c3cccs3)nc2s1	0.7%
CCOCCCNC(=O)c1cc2c(=O)[nH]c3ccccc3c2n1C	-5.4%
COc1cccc(-n2c(SCC(=O)c3ccccc3)nc3c([nH]c4ccccc43)c2=O)c1	-3.6%
COc1ccccc1N1CCN(C(CNC(=O)C(=O)NCCN(C)C)c2cccnc2)CC1 (stereo unspecified)	1.5%
CCSC1=NC2(CCN(C(=O)NC3CCCCC3)CC2)N=C1c1ccc(C)c(C)c1	3.3%
O=C(C[n+]1cccc(Br)c1)c1ccc2c(c1)CCCC2	-0.2%
Cc1ccc(-c2nc3ccccc3o2)cc1NC(=O)Cc1ccc(Cl)cc1	12%
Cn1c(=O)c2c(ncn2CC(=O)Nc2cc(Cl)cc(Cl)c2)n(C)c1=O	1.3%
COc1ccc(Cl)cc1C(=O)NCC(c1ccc(N(C)C)cc1)N1CCCC1 (stereo unspecified)	0.0%
COc1ccc2c(c1)-c1nc(-n3ncc(C(=O)NCc4cccnc4)c3C3CC3)ncc1CC2	-0.4%
CC1CCCN(c2csc3ccccc3c2=O)C1 (stereo unspecified)	2.6%
Cc1cccc(-n2c(=O)c3ccccc3n(Cc3ccc(F)cc3)c2=O)c1	0.1%

Not all compounds are listed. The share of hits here may be higher or lower than overall.
